RGS16-Gao: modulates binding between human RGS16 and Galphao | O15492+P09471 | bead-based flow cytometry RGS16-Galphao binding, fluorescence; actives lie on both sides | binding response (% of control), % at 10 µM | 0.38% of 220,000 active | AID 1441;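 active = below 25% or above 175%, edge rows of some plates excepted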;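 note: Galphao activated by GDP with aluminum fluoride before binding; 100% = wells without compound and 0% = beads without RGS; some results beyond the cut were filed as inactive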
Target sequence (O15492 whole entry, looked up): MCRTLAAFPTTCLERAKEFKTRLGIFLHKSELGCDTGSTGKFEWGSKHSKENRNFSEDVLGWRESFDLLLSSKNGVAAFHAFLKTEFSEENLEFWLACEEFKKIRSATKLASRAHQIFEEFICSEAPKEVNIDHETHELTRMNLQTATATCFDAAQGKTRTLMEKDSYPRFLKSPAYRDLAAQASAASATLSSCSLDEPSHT
Target sequence (P09471 whole entry, looked up): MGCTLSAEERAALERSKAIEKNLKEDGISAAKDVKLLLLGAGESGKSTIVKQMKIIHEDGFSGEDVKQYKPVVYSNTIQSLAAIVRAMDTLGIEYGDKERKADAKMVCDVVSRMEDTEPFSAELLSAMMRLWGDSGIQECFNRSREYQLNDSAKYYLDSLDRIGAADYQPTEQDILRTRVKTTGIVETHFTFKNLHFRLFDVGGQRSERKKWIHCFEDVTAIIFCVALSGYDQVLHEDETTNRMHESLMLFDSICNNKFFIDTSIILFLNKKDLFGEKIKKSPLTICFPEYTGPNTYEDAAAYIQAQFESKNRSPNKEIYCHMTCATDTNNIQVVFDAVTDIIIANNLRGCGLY
PKD1 inh: blocks activity of human protein kinase D1 | AID 797 | inhibition, %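 (about 10 µM by stock and volumes)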 | 0.056% of 200,000 active | PKD1 kinase fluorescence polarization assay | Q15139;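 active = inhibition of 50% or more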;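 note: controls were vehicle for no effect and a reference inhibitor for full effect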
HSV augment: increases HSV replication in cells. HSV replication augmentation in cells, fold increase. maximum fold increase. 0.005% of 220,000 active. AID 1956;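 active = peak rise of 1.5-fold or more in the series; inconclusive = self-fluorescent or not available for retest; tested in PC3 cells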;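 note: first round at 10 µM; read as green reporter fluorescence; hits show the peak of a series up to 25 µM; 1 = signal of infected wells without compound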
GALR2 ag: activates the human galanin receptor 2; AID 803; GALR2-expressing cells, agonist activation read-out; activation, %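 (tested at 5 µM)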; O43603; 0.48% of 140,000 active;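 active = above mean plus 3 SD of all compounds, about 5% in these data, not always enough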;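 note: 0% = vehicle buffer wells and 100% = reference agonist at full effect; tested in CHO reporter cells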
Target sequence (O43603 whole entry, looked up): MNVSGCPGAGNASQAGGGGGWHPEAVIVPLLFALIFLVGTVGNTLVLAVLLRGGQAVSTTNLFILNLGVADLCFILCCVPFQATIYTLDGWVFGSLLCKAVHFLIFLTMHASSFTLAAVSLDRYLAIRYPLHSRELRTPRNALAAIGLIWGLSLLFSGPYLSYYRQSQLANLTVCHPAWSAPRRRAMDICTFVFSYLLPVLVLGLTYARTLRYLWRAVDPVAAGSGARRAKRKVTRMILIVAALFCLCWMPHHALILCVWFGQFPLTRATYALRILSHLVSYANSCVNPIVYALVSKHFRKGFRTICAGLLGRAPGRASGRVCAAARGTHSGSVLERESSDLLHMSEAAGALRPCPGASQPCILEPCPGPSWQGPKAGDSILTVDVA
Insulin prom inh: TRM-6 insulin promoter activity inhibition; TRM-6 cells (human fetal islet line), insulin promoter-eGFP reporter, imaging; reporter expression induced with tamoxifen; inhibition, % at 2 µM; 0.9% of 130,000 active;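 active = inhibition above the mean plus 3 SD, with well images judged a real hit on visual review, cut at about 60% in these data, passing the limit was not always enough; inconclusive = inhibition over the cutoff but images rejected on review; inactive = inhibition not above the cutoff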
Insulin prom inh cell count: also measured in Insulin prom inh; calls as there; normalized cell count, %; measured here: cell count, toxicity; reference of the scale not given here;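 cells exposed to compound for 48 h; stained nuclei by imaging scaled within each plate; lower means fewer cells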
HSV augment primary fold: second read-out of HSV augment, no call of its own (marks repeat the call); fold increase; compound at 10 µM; measured here: primary screen fold increase 10 uM; tested in PC3 cells;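 GFP signal in the first replicate; 1 = infected wells without compound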
Starred values were filed as active, the others as inactive; i = inactive; ? = inconclusive; . = not tested or not shown.

nr	molecule	RGS16-Gao	PKD1 inh	HSV augment	HSV augment primary fold
1	CN(C)CCOc1cc(Cl)cc(Cl)c1	90	-6	i	0.97
2	CCN(CC)c1ccc(C(=O)Nc2cccc(F)c2)cc1	102	-11	i	0.68
3	Cc1ccc(S(=O)(=O)N2CCN(c3ccc(C(F)(F)F)cc3[N+](=O)[O-])CC2)cc1	107	-16	i	0.98
4	CC(C)[C@H](NS(=O)(=O)c1ccc2c(c1)OCCO2)C(=O)OCC(=O)Nc1ccccc1	115	-7	i	0.96
5	CC(C)(C)NC(=O)CN(C(=O)CS(=O)CC(=O)Nc1ccc(F)cc1)c1ccccc1F (stereo not given)	103	-2	i	0.91
6	COCCn1c(C2CCCCC2)nc2sc3ccccc3c(=O)c2c1=O	110	-2	i	0.95
7	Cn1nc(-c2ccccc2)cc1NC(=O)Nc1ccc(C(C)(C)C)cc1	102	.	i	0.92
8	Cc1ccc(NC(=O)CCCCCCCCCCC2COCCO2)c(C)c1 (stereo not given)	64	-7	i	1.2

nr	GALR2 ag	Insulin prom inh	Insulin prom inh cell count
1	.	.	.
2	-2.5	10	98
3	-0.7	.	.
4	-1.1	-18	61
5	.	.	.
6	-2.5	.	.
7	.	.	.
8	-2.0	.	.

(next part)
nr	molecule	RGS16-Gao	PKD1 inh	HSV augment	HSV augment primary fold
9	Cc1cc(C(=O)Nc2ccc(C(=O)O)cc2)c(-c2ccccc2)o1	93	-17	i	0.91
10	O=C(N/N=C/c1cc([N+](=O)[O-])ccc1O)c1cccc2cc[nH]c12	91	.	i	0.92
11	CCCn1c(N2CCN(S(=O)(=O)Cc3ccccc3)CC2)nc2ccccc21	102	-5	i	0.85
12	NC(=O)c1cc(N2C(=O)C3CC=CCC3C2=O)ccc1N1CCCCC1 (stereo not given)	103	6	i	0.83
13	Clc1ccc(-c2csc(-c3ccno3)n2)cc1	99	.	i	1
14	Cc1ccc(NC(=O)CSC2=C(C#N)C(c3ccc4c(c3)OCO4)CC(=O)N2)cc1C (stereo not given)	101	-9	i	1
15	CCC(=O)N(CCC(Cc1ccccc1)c1ccco1)Cc1ccco1 (stereo not given)	121	-6	i	1
16	C=CCn1c(=O)c(C(=O)Nc2ccccc2O)c(O)c2ccccc21	104	-1	i	1

nr	GALR2 ag	Insulin prom inh	Insulin prom inh cell count
9	-0.3	.	.
10	.	.	.
11	-0.7	.	.
12	0.7	21	158
13	.	.	.
14	-1.9	19	60
15	.	.	.
16	-1.1	29	26

Continued:
nr	molecule	RGS16-Gao	PKD1 inh	HSV augment	HSV augment primary fold
17	O=C(COc1ccccc1[N+](=O)[O-])OCC(=O)N1CCC(Cc2ccccc2)CC1	98	-10	i	0.92
18	CC[n+]1c(/C=C/C=C/N(C(C)=O)c2ccccc2)sc2ccccc21	150	-27	.	.
19	Cc1ccc(NC(=O)CN(C)CC(=O)Nc2ccc(F)c(F)c2F)c(Cl)c1	103	-3	i	1.1
20	O=C(c1ccc(S(=O)(=O)N2CCOCC2)cc1)N1CCN(c2ccccc2)CC1	104	-8	i	0.78
21	Cc1ccc(S(=O)(=O)N2CCCCC2)cc1C(=O)Nc1ccc(N2CCOCC2)cc1	96	0	i	0.94
22	CCn1c(C)c(/C=N/Nc2nc3ccccc3s2)c2ccccc21	103	-2	i	0.87
23	CCOC(=O)Cn1nc(-c2ccc(C)cc2)ccc1=O	101	-4	i	0.99
24	c1nc2sc3c(c2c2nnnn12)CCCC3	106	0	.	.

nr	GALR2 ag	Insulin prom inh	Insulin prom inh cell count
17	-1.9	0	107
18	-1.3	-203	102
19	.	.	.
20	-0.9	.	.
21	1.5	-16	133
22	-0.3	46	65
23	-1.6	-70	120
24	1.0	.	.

Going on with the list.
nr	molecule	RGS16-Gao	PKD1 inh	HSV augment	HSV augment primary fold
25	Cc1ccc(C2C(=O)N(C3CCCC3)CC(=O)N2C2CCCCC2)cc1 (stereo not given)	115	-4	i	0.81
26	COC(=O)Oc1ccc(/C=N/NC(=O)CSCc2ccc(Cl)cc2)cc1OC	103	4	i	0.89
27	O=C1N/C(=C\c2ccccc2)C(O)=C1C=NCc1ccccc1	86	-2	i	0.92
28	Fc1ccc(F)c(C2=NNC(=NCC3CCCO3)SC2)c1 (stereo not given)	94	-9	i	1.2
29	CCCCC(CC)C(=O)Nc1ncc([N+](=O)[O-])s1 (stereo not given)	110	-3	i	0.87
30	c1cncc(-c2noc(-c3ccco3)n2)c1	106	-2	i	1
31	COc1ccc(OC)c(CN(CCCN2CCOCC2)C(=O)Nc2ccccc2)c1	41	-6	i	0.94
32	CCCCOC(=O)C1=C(C)Nc2nnnn2C1c1ccccc1Cl (stereo not given)	105	-13	i	0.9

nr	GALR2 ag	Insulin prom inh	Insulin prom inh cell count
25	-2.5	-3	129
26	0.5	-14	131
27	-0.8	13	84
28	.	.	.
29	.	29	110
30	-2.9	.	.
31	-2.3	3	119
32	-1.8	-17	98

Following part
nr	molecule	RGS16-Gao	PKD1 inh	HSV augment	HSV augment primary fold
33	O=C(O)CSC1=NC(=Nc2cccc(Cl)c2)C2(CCCCC2)N1c1ccccc1	120	-2	i	0.69
34	N#Cc1cnc2ncnn2c1-c1ccccc1	118	-5	i	1.1
35	Cc1ccc(CNc2nc3ccccc3s2)s1	103	0	i	0.94
36	O=C(CN1CCCc2ccccc21)NCc1ccc2c(c1)OCO2	95	2	i	1
37	Cn1cc(S(=O)(=O)CC(=O)Nc2ccc3c(c2)OCO3)c2ccccc21	115	-12	i	1
38	CN(C)c1ccnc(Oc2ccccc2)c1C#N	108	-3	i	0.92
39	COc1ccccc1/C=N/NC(=O)c1cccc(NC(=O)c2ccccc2Cl)c1	101	0	i	1.2
40	CCCn1c(SCC(=O)N2CCCC2)nc2c1c(=O)n(C)c(=O)n2C	107	5	i	0.9

nr	GALR2 ag	Insulin prom inh	Insulin prom inh cell count
33	-1.3	.	.
34	-0.6	38	94
35	-3.1	.	.
36	-2.6	9	91
37	-5.4	21	48
38	-1.5	14	73
39	.	-17	97
40	-1.4	.	.

The list continues.
nr	molecule	RGS16-Gao	PKD1 inh	HSV augment	HSV augment primary fold
41	O=C(CC1C(=O)NCCN1C(=S)Nc1ccccc1)Nc1ccc(F)cc1 (stereo not given)	104	7	i	1
42	CC(=O)OCCc1c(C)nc2nc[nH]n2c1=O	96	-8	i	1.2
43	COc1ccc(/C=N/NC(=O)CCCOc2ccc(Cl)cc2Cl)cc1	94	1	i	0.93
44	Cc1csc(NC(=O)C(F)(F)F)n1	112	-1	i	0.96
45	CS(=O)(=O)N(CC(=O)N1CCCC1)c1cc(Cl)c(Cl)cc1Cl	72	2	i	0.91
46	Cc1ccccc1NC(=O)COC(=O)/C=C/c1cccc(C(F)(F)F)c1	115	5	i	0.91
47	O=C(NC1CCCC1)C(c1ccc(F)cc1)N(Cc1ccccc1Cl)C(=O)CCl (stereo not given)	102	-10	i	0.94
48	Cc1ccc(C)c(N2C(=O)CS/C2=N\NC(=O)c2ccccc2Cl)c1	90	-9	i	1

nr	GALR2 ag	Insulin prom inh	Insulin prom inh cell count
41	0.3	.	.
42	-1.6	-3	87
43	-0.2	-134	123
44	-0.9	.	.
45	-1.6	-49	146
46	-1.9	-14	78
47	-1.4	-69	80
48	-2.1	0	138

3 compounds from above, sorted by the value under GALR2 ag, lowest first.
| nr | canonical_smiles | RGS16-Gao | PKD1 inh | HSV augment | HSV augment primary fold | GALR2 ag |
| --- | --- | --- | --- | --- | --- | --- |
| 48 | Cc1ccc(C)c(N2C(=O)CS/C2=N\NC(=O)c2ccccc2Cl)c1 | 90 | -9 | i | 1 | -2.1 |
| 46 | Cc1ccccc1NC(=O)COC(=O)/C=C/c1cccc(C(F)(F)F)c1 | 115 | 5 | i | 0.91 | -1.9 |
| 43 | COc1ccc(/C=N/NC(=O)CCCOc2ccc(Cl)cc2Cl)cc1 | 94 | 1 | i | 0.93 | -0.2 |

The list goes on.
nr	molecule	RGS16-Gao	PKD1 inh	HSV augment	HSV augment primary fold
49	CN(C)CCCC(C)(O)C(Cc1ccccc1)c1ccccc1 (stereo not given)	101	-6	i	0.96
50	Cn1c(CSCc2ccccc2)n[nH]c1=S	103	-2	i	1
51	CS(=O)CCC(NS(=O)(=O)c1ccccc1)C(=O)O (stereo not given)	95	3	i	0.93
52	CCc1ccc(-c2nc(CN3CCC(C(=O)N4CCN(c5ccccc5)CC4)CC3)c(C)o2)cc1	126	6	i	0.75
53	COc1ccc(CNc2nc3nc(C)cc(C)n3n2)cc1	105	-6	i	0.91
54	N#CC1=C(C2CC2)CC(c2ccccc2)C(C#N)=C1N (stereo not given)	101	-10	i	1.1
55	O=C1c2cccnc2C(Nc2ccc(Br)cc2Br)N1Cc1cccs1 (stereo not given)	103	0	i	0.9
56	O=C(Nc1ccccc1)c1ccc(Br)o1	105	-11	i	1

nr	GALR2 ag	Insulin prom inh	Insulin prom inh cell count
49	0.4	8	112
50	-3.6	-46	99
51	-1.2	-166	52
52	-0.9	.	.
53	-2.4	22	137
54	-1.3	.	.
55	.	.	.
56	-2.3	19	115

The list continues.
nr	molecule	RGS16-Gao	PKD1 inh	HSV augment	HSV augment primary fold
57	COc1ccccc1N(CC(=O)NCC1CCCO1)C(=O)CNS(=O)(=O)c1ccccc1 (stereo not given)	102	.	i	0.85
58	CCCCC12CN3CC(C)(CN(C1)C3c1ccc([N+](=O)[O-])o1)C2=O (stereo not given)	102	.	i	0.78
59	CC(C)CCN(C(=O)Nc1ccc(Cl)cc1)C1CCN(C(C)C)CC1	99	-6	i	0.76
60	Cc1ccc(/C=C/C(=O)c2c(C)cc(C)[nH]c2=O)cc1	105	1	i	0.56
61	Cc1ccc(C2=NC(=O)/C(=C/c3cc(O)c(O)c(Br)c3)S2)cc1	94	-2	i	1.1
62	Cc1ccc(S(=O)(=O)NCc2c(-c3ccccc3)c3cc(Cl)ccc3[nH]c2=O)cc1	18	6	i	0.93
63	O=S(=O)(Nc1nc2ccccc2nc1-[n+]1cccc(N=C([O-])c2ccccc2Cl)c1)c1ccccc1	96	.	?	.
64	COc1cccc(C2=NOC(C(=O)N3CCN(Cc4ccccc4)CC3)C2)c1OC (stereo not given)	102	8	.	.

nr	GALR2 ag	Insulin prom inh	Insulin prom inh cell count
57	.	.	.
58	.	.	.
59	.	.	.
60	-0.7	.	.
61	.	.	.
62	-0.9	.	.
63	.	.	.
64	-0.8	17	111

Going on with the list:
nr	molecule	RGS16-Gao	PKD1 inh	HSV augment	HSV augment primary fold
65	Cc1ccc(S(=O)(=O)N2CCN(C(C)C(=O)N3CCCc4ccccc43)CC2)cc1 (stereo not given)	136	-7	i	0.98
66	CCCOCCOC(=O)c1[nH]c2c(c1C)C(=O)CC(c1cc(OC)ccc1OC)C2 (stereo not given)	103	-1	i	1
67	O=C(c1ccco1)N1CCN(c2ccc(F)cc2)CC1	92	-2	i	0.84
68	COc1ccccc1-c1nnc2sc(-c3cnccn3)nn12	102	4	i	1.1
69	COc1cc(C(=O)N2CCC(O)(c3ccccc3)CC2)cc(OC)c1OC	.	-8	i	0.79

nr	GALR2 ag	Insulin prom inh	Insulin prom inh cell count
65	-4.5	-11	73
66	1.2	.	.
67	.	-33	72
68	0.0	-29	62
69	-2.8	.	.

Compounds shown so far that have fluorine (10):
nr	molecule	RGS16-Gao	PKD1 inh	HSV augment	HSV augment primary fold
2	CCN(CC)c1ccc(C(=O)Nc2cccc(F)c2)cc1	102	-11	i	0.68
3	Cc1ccc(S(=O)(=O)N2CCN(c3ccc(C(F)(F)F)cc3[N+](=O)[O-])CC2)cc1	107	-16	i	0.98
5	CC(C)(C)NC(=O)CN(C(=O)CS(=O)CC(=O)Nc1ccc(F)cc1)c1ccccc1F (stereo not given)	103	-2	i	0.91
19	Cc1ccc(NC(=O)CN(C)CC(=O)Nc2ccc(F)c(F)c2F)c(Cl)c1	103	-3	i	1.1
28	Fc1ccc(F)c(C2=NNC(=NCC3CCCO3)SC2)c1 (stereo not given)	94	-9	i	1.2
41	O=C(CC1C(=O)NCCN1C(=S)Nc1ccccc1)Nc1ccc(F)cc1 (stereo not given)	104	7	i	1
44	Cc1csc(NC(=O)C(F)(F)F)n1	112	-1	i	0.96
46	Cc1ccccc1NC(=O)COC(=O)/C=C/c1cccc(C(F)(F)F)c1	115	5	i	0.91
47	O=C(NC1CCCC1)C(c1ccc(F)cc1)N(Cc1ccccc1Cl)C(=O)CCl (stereo not given)	102	-10	i	0.94
67	O=C(c1ccco1)N1CCN(c2ccc(F)cc2)CC1	92	-2	i	0.84

nr	GALR2 ag	Insulin prom inh	Insulin prom inh cell count
2	-2.5	10	98
3	-0.7	.	.
5	.	.	.
19	.	.	.
28	.	.	.
41	0.3	.	.
44	-0.9	.	.
46	-1.9	-14	78
47	-1.4	-69	80
67	.	-33	72

Assay outcomes from PubChem BioAssay.
